Source: PubChem
PrP UTR inh = inhibition of PrP 5' UTR reporter expression. cell-based PrP 5' UTR mRNA reporter, plate reader. inhibition, % (test concentration not listed). 340,000 compounds, 0.35% hits;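 active = every replicate at 50% or more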;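 also: 0 = median of the neutral control wells; tested in H4 reporter cells; numbers are from one replicate; inactives centre near -14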
RN4220 kill = S. aureus RN4220 growth inhibition; inhibition, % (test concentration not listed); OD600, 16 h; 330,000 compounds, 0.33% hits; AID 1259311;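 active = z-score of -3 or lower and OD600 up to 0.18 on both plates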;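 also: plate controls were untreated cells for no effect and reference antibiotic for full effect; stock transfer was 100 nL into about 80 µL; one replicate is shown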
ugtP null kill = compounds lethal to S. aureus RN4220 ugtP deletion mutant; OD600 growth, 16 h; some inactives read as strong as hits; growth inhibition, % (test concentration not listed); 330,000 compounds, 0.54% hits; AID 1259309;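 active = z-score under -3 and OD600 up to 0.15 on both plates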;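 also: plate controls were untreated wells for no effect and antibiotic for full effect; wells of about 80 µL received 100 nL stock; the first replicate is given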
Mtb hypoxia rep = Mtb hypoxia fluorescent reporter inhibition; M. tuberculosis hypoxia-regulated fluorescent reporter, fluorescence; fluorescence inhibition, % (no concentration beside the values); 300,000 compounds, 0.1% hits; AID 1159583;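 active = 35 to 45% if threefold the growth effect, above 45% if 1.5-fold the growth effect; inactive = the rest, general growth blockers included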;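 also: wells of about 50 µL received 100 nL stock; 0% = vehicle wells and 100% = reference inhibitor wells; whole bacteria with a GFP reporter of the hypoxia response; strong numbers were not always called active; many hits fall short of the cut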
BJeLR lethal = kills HRASV12-expressing BJeLR cells. BJeLR (HRASV12) viability, CellTiter-Glo ATP luminescence, 48 h; reference of the scale not given here. inhibition, % (test concentration not listed). 300,000 compounds, 0.17% hits;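 active = replicate mean above 50%; inconclusive = above 50% but judged a plate artefact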;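 also: 50 nL library stock added to about 25 µL; numbers are from one replicate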
Bead autofluor = counter-screen for toxin protease inhibitors: compound fluorescence | 360,000 compounds, 3.1% hits | compound autofluorescence counterscreen, microsphere flow cytometry; hits give high values | fluorescence intensity (concentration not given with the values);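 active = at least 3 SD above the mean of all compounds, about 16000 in these data; inconclusive = too few beads counted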;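 also: 100 nL of 1 mM stock went into each well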
Mtb hypoxia rep growth = second read-out of Mtb hypoxia rep, no call of its own (marks repeat the call); growth inhibition, %; measured here: M. tuberculosis growth (absorbance);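 0% = vehicle and 100% = reference antibiotic; read after six days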
The depositor's hits bear a star; ? = inconclusive; / = no result given; & = joins results of further samples.

SMILES	PrP UTR inh	RN4220 kill	ugtP null kill	Mtb hypoxia rep	Mtb hypoxia rep growth	BJeLR lethal	Bead autofluor
CCCC(=O)C1=C(O)C(C(=O)OC)C(C)(C)CC1=Nc1ccc(N)cc1 (configuration not stated)	-28	3.3	1	4	4	6	21083*
Cc1ccc(NC(=O)CS(=O)CC(=O)N2CCN(C3CCCC3)CC2)cc1 (configuration not stated)	-27	2.7	-1	16	9	-2	3397
CCCc1ccc(Oc2cc(NN3CCCCC3)c([N+](=O)[O-])cc2[N+](=O)[O-])cc1	10	4.2	2	19	5	-1	3233
CC(C)(C)C(=O)Cn1c(=O)n(-c2ccc(F)cc2F)c(=O)c2sccc21	-14	1.9	13	-12	-7	20	4806
Nc1ccccc1Nc1cc(-c2ccccc2)nn1-c1cccc(Cl)c1	-5	-14	17	10	-2	-4	2127
COc1ccc(S(=O)(=O)N2CCN(C)CC2)cc1	-18	1.8	2	21	6	2	3909
CN(C(=O)c1nc(-c2ccccc2)n(-c2ccccc2)n1)C1CCS(=O)(=O)C1 (configuration not stated)	-12	1.5	6	14	11	-6	5401
O=C(c1ccccc1)c1cccc(NC(=O)c2ccco2)c1	-34	-3.3	-9	3	6	-1	3247
COc1ccccc1Nc1nc(N)nc(CSc2nncn2C)n1	-11	-0.6	7	7	-8	-1	3913
COCCN(C(=S)Nc1cccc(C)c1C)C(C)c1ccco1 (configuration not stated)	-20	3.7	6	8	11	-8	?
CC1=CC(=C2C(=O)NC(=S)NC2=O)C=C(C(F)(F)F)N1C	-49	8.1	9	17	12	1	2303
CC(C)[C@H](NC(=O)c1ccccc1)C(=O)OCc1nc2scc(-c3ccccc3)c2c(=O)[nH]1	-16	-1.0	-5	1	7	10	2089
CCOc1ccc(C=NNC(=O)CCC(=O)Nc2ccc(F)cc2)cc1	/	-2.0	-3	-2	-8	/	/
CN(C(=O)CN1C(=O)CCSc2ccc(S(=O)(=O)N3CCCC3)cc21)c1ccccc1	-11	2.3	2	10	1	4	5733
COc1ccc(C(C)(C)C)cc1NC(=O)COc1ccc(-c2nnco2)cc1	-17	5.2	5	-6	0	/	2855
CCOC(=O)c1cnc2ccc(C(=O)OC)cc2c1Nc1cccc(C(=O)O)c1	-13	-0.7	3	8	6	0	4026
COc1ccc(CC(=O)Nc2nc(-c3ccc(F)c(F)c3)cs2)cc1OC	-15	-17	57	7	1	1	5027
Cc1ccc(-c2csc(NC(CO)c3nc4ccccc4n3CCOCCO)n2)cc1 (configuration not stated)	-15	2.9	5	-4	-4	-8	2811
CCOC1OC(C(N)=O)=CC(C(C)(C)C)C1CCCO (configuration not stated)	/	4.1&8.1	3&4	13&11	5&4	/	/
O=C(NC1CC1)C1CCN(C2CCN(Cc3ccccc3C(F)(F)F)CC2)CC1	-19	0.7	6	4	6	3	5722

Given as comma-separated lines: 2 of the compounds above
Structure,PrP UTR inh,RN4220 kill,ugtP null kill,Mtb hypoxia rep,Mtb hypoxia rep growth,BJeLR lethal,Bead autofluor
Cc1ccc(-c2csc(NC(CO)c3nc4ccccc4n3CCOCCO)n2)cc1 (configuration not stated),-15,2.9,5,-4,-4,-8,2811
CCOC1OC(C(N)=O)=CC(C(C)(C)C)C1CCCO (configuration not stated),/,4.1&8.1,3&4,13&11,5&4,/,/

A section from the list above, for reference:
SMILES	PrP UTR inh	RN4220 kill	ugtP null kill	Mtb hypoxia rep	Mtb hypoxia rep growth	BJeLR lethal	Bead autofluor
COc1ccc(C(C)(C)C)cc1NC(=O)COc1ccc(-c2nnco2)cc1	-17	5.2	5	-6	0	/	2855
CCOC(=O)c1cnc2ccc(C(=O)OC)cc2c1Nc1cccc(C(=O)O)c1	-13	-0.7	3	8	6	0	4026
COc1ccc(CC(=O)Nc2nc(-c3ccc(F)c(F)c3)cs2)cc1OC	-15	-17	57	7	1	1	5027

The results go on.
SMILES	PrP UTR inh	RN4220 kill	ugtP null kill	Mtb hypoxia rep	Mtb hypoxia rep growth	BJeLR lethal	Bead autofluor
COc1ccc(CN(C)CC2CCCN(CCc3ccc(Cl)cc3)C2)cc1OC (configuration not stated)	-28	3.3	-1	14	22	-5	4888
CCN1C(=O)/C(=C2/C=CC=CN2C)OC1=S	13	3.6	-1	-2	11	3	10432
Cc1sc2ncn3ncnc3c2c1C	-10	3.6	-1	0	-4	1	3526
Cc1cs/c(=N/C(=S)Nc2ccccc2)n1C	-126	/	/	/	/	4	2580
CC(C)C(C(=O)NC1CCCC1)N(Cc1ccco1)C(=O)CNS(=O)(=O)c1ccccc1 (configuration not stated)	-9	0.4	6	-4	3	-2	5964
O=C(c1ccc(S(=O)(=O)Nc2ccc(F)cc2)cc1)N1CCN(c2ccccn2)CC1	-24	6.0	-1	10	8	-2	4616
Cc1ccc(S(=O)(=O)N2CCN(S(=O)(=O)N3CCOCC3)CC2)cc1	-8	1.0	8	11	2	-5	6570
CC(C)(C)NC(=O)CCCCCCCC(=O)NC(C)(C)C	-11	1.1	3	-9	3	2	4114
CC(C)(C)C(=O)Nc1ccc(C(=O)N/N=C/c2ccccc2OC(=O)c2ccccc2)cc1	8	/	/	/	/	12	2572
Cc1ccnc(NC(=O)C2CCN(S(=O)(=O)c3cccc4nsnc34)CC2)c1	-33	2.1	3	/	/	-1	4445
O=C(O)CCC(=O)N(Cc1ccco1)c1nc(-c2ccccc2)cs1	-21	5.8	-8	7	2	-7	22478*
O=C(NCC1CCCO1)c1ccc2c(c1)N(Cc1ccc(F)cc1Cl)C(=O)CS2 (configuration not stated)	-7	5.7	15	2	1	-3	5568
CCCCCCCCOc1ccc(C2OC34CCCCC3C(C#N)(C#N)C2(C#N)C(=N)O4)cc1 (configuration not stated)	-16	-0.1	7	/	/	2	5009
CCN(CC(=O)Nc1cc(Cl)ccc1C)C(=O)CCS(=O)(=O)c1ccc(C)cc1	-11	2.5	-2	3	2	-5	?
Cc1ccc(NC(=O)CNC(=O)COc2ccccc2)nc1	-17	4.4	6	5	2	1	5521
Brc1ccc(-c2csc(N/N=C/c3ccc4c(c3)OCO4)n2)cc1	-28	/	/	/	/	1	2613
O=C(O)C1CCCCC1C(=O)Nc1ccccc1F (configuration not stated)	-24	2.3	9	4	1	-2	11080
O=C1C=C2C=CC3C[C@]2(O1)C1CCCCN31 (some centres not stated)	/	5.6	-1	18	9	/	/
O=C(NCc1ccccc1)C1=C[C@H](c2ccccc2)C[C@H](OCc2ccc(CO)cc2)O1	-15	/	/	/	/	-2	3878
CC(C)N(C(=O)Cn1cc(SCC(=O)NCC2CCCO2)c2ccccc21)C(C)C (configuration not stated)	-7	6.3	3	-5	6	4	3628
COc1ccccc1OCCCCCCN1CCOCC1	-18	-0.2	4	5	11	-4	3366
Cc1ccc(NC(=O)[C@H](Cc2ccccc2)NC(=O)C2CCNCC2)cc1	-21	3.6	4	-3	9	10	5764
Cc1cccc(NC(=S)NC(=O)C(c2ccccc2)c2ccccc2)n1	-22	-1.3	5	/	/	0	4525
CS(=O)(=O)Oc1ccc2c(c1)O/C(=C\c1cccnc1)C2=O	-6	4.2	7	3	0	-4	3718
COc1cccc(/C=N/NC(N)=S)c1OS(=O)(=O)c1ccccc1	-17	/	/	/	/	-3	6480
C/C(CC(C)C)=N\Nc1ccc(S(N)(=O)=O)cc1[N+](=O)[O-]	-3	/	/	/	/	4	5970
CC(=O)CSc1nnc(-c2ccncc2)n1C	-5	8.3	3	2	5	10	3911
CCN(c1ccccc1)S(=O)(=O)c1cc(C(=O)Oc2ccc3c(C)cc(=O)oc3c2)ccc1C	-21	/	/	/	/	4	11212
Cc1ccc(S(=O)(=O)Nc2cccc(/C=C/C(=O)O)c2)cc1	18	1.1	-1	1	-5	5	3510
CS(=O)(=O)N1CCN(C(=O)CCc2ccccc2)CC1	1	5.5	13	15	-2	-5	4309
CCCC1CC(C(=O)Nc2ccccc2)C(=O)O1 (configuration not stated)	-34	4.2	1	12	4	-8	6162
COc1ccc2nc3oc(C(=O)N4CCCCC4)cc3cc2c1	-131	1.2	10	/	/	-5	2289
Cc1ncoc1C(=O)Nc1ccc(Oc2ccccc2)cc1	-58	2.7	3	1	6	11	19937*
CCC1(c2ccc(F)cc2)NC(=O)N(CC(=O)N2c3ccccc3NC(=O)CC2C)C1=O (configuration not stated)	/	5.2	7	8	0	/	?
O=C(COC(=O)c1ccccc1O)Nc1ccc(N2CCOCC2)cc1	-34	1.1	4	5	-1	/	2998
O=S(=O)(c1ccc(F)c(Cl)c1)N1CCCC1	7	1.0	-1	7	1	1	7709
Cn1cc(C(=O)NN=Cc2ccc(Br)c([N+](=O)[O-])c2)c2ccccc21	/	-16	-22	2	6	/	/
Cn1nnnc1SCC(=O)Nc1ccccn1	-9	4.6	8	8	3	-3	22271*
Cc1cc2oc(=O)cc(-c3ccccc3)c2c(C)c1-c1ccc(N(C)C)cc1	-11	-4.0	-14	1	2	/	3908
Cc1ccc2nsnc2c1NC(=O)c1ccc2c(c1)OCCO2	-17	3.4	-10	4	1	-8	11271
O=S(=O)(N1CCCCC1)N1CCN(S(=O)(=O)N2CCCCC2)CC1	-10	3.3	-3	/	/	6	2813
O=C(O)C1CC=CCC1C(=O)Nc1cccc([N+](=O)[O-])c1 (configuration not stated)	-13	6.4	2	10	5	0	3273
Cc1cc(C)c(NC(=O)CSc2nnc(CNC(=O)c3ccccc3F)o2)c(C)c1	-11	0.7	4	4	1	-5	6117
C(=N\N1CCN(c2ccccn2)CC1)/c1cccc2ccccc12	-25	/	/	/	/	-2	4212
CC(=O)Nc1ccc(NC(=O)c2cc(-c3ccc(C)c(C)c3O)n[nH]2)cc1	-27	0.3	-13	1	-4	12	3947
Cc1cc(C)nc(Nc2nc3ccccc3o2)n1	-18	2.7	12	10	1	-7	5445
CCn1c(SCC(=O)NC2CCCC2)nnc1-c1ccncc1	-13	4.9	5	4	3	6	4187
Cc1ccc(CC(CC(=O)O)C(=O)NC2CCCCC2)cc1 (configuration not stated)	-11	1.5	-4	-6	3	11	22833*
CCOC(=O)c1cc2c(nc1NC(=S)NCc1ccccc1)CCCC2	-39	1.0	1	22	13	6	2006
COc1ccc(NC(=O)C2CCCN2S(=O)(=O)c2cccc3cccnc23)cc1 (configuration not stated)	/	1.2	-1	-2	8	/	/
CCC(CC)C(=O)Nc1nnc(SCC(=O)NC2CC2)s1	-17	1.7	-2	5	-1	-1	4434
O=C(NCc1ccco1)C1CC(=O)N(c2ccc(F)cc2)C1 (configuration not stated)	-3	4.6	2	6	-8	-10	2388
C/C(=C\CCC1(C)C2CC3C(C2)C31C)C(=O)O (configuration not stated)	4	14	-1	/	/	0	5516
O=C(C1=CC(c2ccccc2)CC(OCCCCO)O1)N1CCOCC1 (configuration not stated)	/	5.0&7.6	0&-2	8&19	-2&8	/	/
COc1cccc(/C=C2\SC(=S)N(N3CCOCC3)C2=O)c1OC	-50	2.7	3	3	6	4	2486
Cc1ccc(C(=O)NC(=S)NNC(=O)CC#N)cc1	-33	9.9	-14	0	4	-5	2639
COc1ccc(OC)c(CN2CCC(C(=O)N3CCOCC3)CC2)c1	-5	4.0	4	/	/	1	2057
CCC(C)c1ccc(NC(=S)NCc2cccs2)cc1 (configuration not stated)	-19	-1.5	-13	8	21	-6	12005
CSc1nc(N)nc2c1ncn2CC(=O)NCCCN1CCCC1=O	-11	3.6	5	-9	1	/	2968
O=C(/C=C/c1ccccc1Cl)c1ccc[nH]1	-86	13	-9	10	15	4	2415
(further entries)
SMILES	PrP UTR inh	RN4220 kill	ugtP null kill	Mtb hypoxia rep	Mtb hypoxia rep growth	BJeLR lethal	Bead autofluor
CCc1cccc(CC)c1NC(=S)NCc1ccc2[nH]c(C)cc2c1	-11	-8.3	-15	4	14	-8	2974
O=C(OCC(=O)N1CCN(C(=O)c2ccco2)CC1)c1cn(-c2ccccc2)nc1-c1ccccc1	1	1.5	-5	5	5	-9	3123
CN(C)C(CNc1ccc([N+](=O)[O-])cc1C#N)c1ccccc1 (configuration not stated)	-5	3.1	2	-9	3	10	4406
COc1ccc(C2=NS(=O)(=O)N(C)C(C(=O)Nc3ccc(OC)c(OC)c3)=C2)cc1	-10	3.3	-4	-5	-1	-4	5257
CCCn1cnc2c(oc3ccccc32)c1=O	-19	3.8	5	4	7	6	3262
N=c1c(C(=O)NCc2ccc3c(c2)OCO3)cc2c(=O)n3ccccc3nc2n1Cc1cccnc1	-36	3.5	1	5	14	-1	24844*
CC1=CC=CC2=NC(=O)CC(C)(C(=O)O)N12 (configuration not stated)	-14	0.6	-1	-9	-15	-4	4259

Random draw from the library; about 4% have a hit in one of these screens.
